Source: PubChem (National Center for Advancing Translational Sciences (NCATS))
HPGD block = HPGD (human) dehydrogenase inhibition; P15428; purified HPGD, NADH fluorescence kinetic, PGE2 substrate; Potency, µM, inactives show at the highest dose activity change, negative = inhibition, usual class: inhibitors; actives 4.3% (n = 150,000); active = well fitted inhibition curve with a large enough effect (not every such curve was filed as active); inconclusive = small, poorly fitted or top-dose-only effect, or another doubt; inactive = no such curve, though single readings can be large or run the other way;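 also: top concentration of the series not given in the record; plate controls included wells without enzyme; inactives centre near -10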
Target sequence (P15428 whole entry, looked up): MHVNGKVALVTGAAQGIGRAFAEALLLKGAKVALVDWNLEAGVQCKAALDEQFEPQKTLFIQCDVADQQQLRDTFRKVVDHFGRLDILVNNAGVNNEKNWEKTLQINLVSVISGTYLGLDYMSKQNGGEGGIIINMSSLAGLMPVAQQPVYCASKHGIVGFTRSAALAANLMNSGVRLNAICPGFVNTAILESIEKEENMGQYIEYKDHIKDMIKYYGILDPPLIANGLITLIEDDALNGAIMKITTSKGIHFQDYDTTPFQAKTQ
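NADH formation kinetics: reaction with 30 uM PGE2 and 1 mM NAD+ (final), 20 nM enzyme, Tris-HCl pH 8 with Tween 20, after 15 min compound preincubation at room temperature. Fluorescence change, last versus first of five reads.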
An asterisk follows results filed as active; ? = inconclusive. % is scaled to controls: 0 for no effect and ±100 for the full control effect; potency is read from the fitted curve at half-maximal effect.

SMILES,HPGD block
OC(COCc1cccs1)CN1CCCCCC1 (stereo not given),-24%
O=C(c1cccc(F)c1)N1CCC[C@@]2(CCN(Cc3ccncc3)C2)C1,?
Fc1ccc(CSc2nnc(-c3cccnc3)n2Cc2ccco2)cc1,-17%
NC(N)=Nc1ccc(Cl)cc1,5%
O=C(N/N=C/c1cn(-c2cccs2)nc1-c1ccccc1)c1ccccc1Cl,?
COc1cc(NC(=O)NC(C)(C(F)(F)F)C(F)(F)F)cc(OC)c1OC,-4%
CC(C)CCNC(=O)C(c1cccs1)N(CC1CCCO1)C(=O)Cn1nnc2ccccc21 (stereo not given),-2%
CCC(C)c1cc(S(=O)(=O)N2CCOCC2)ccc1OC (stereo not given),-6%
Cc1ccc(C)c(S(=O)(=O)NCc2ccncc2)c1,0%
CC1(C)CC(=O)C2=C(C1)OC(N)=C(C#N)C2c1cc2c(cc1[N+](=O)[O-])OCO2 (stereo not given),0%
CC(C)NC(=O)CSCc1cccc(Br)c1,-23%
O=C(CN1C(=O)COc2ccccc21)NCCN1CCC(Cc2ccccc2)CC1,-3%
CC(C)OCCCNC(=O)NC12CC3CC(CC(C3)C1)C2,-10%
Cc1ccccc1NC(=O)CC1SC(=NC2CCCCC2)NC1=O (stereo not given),-4%
O=C(Oc1ccc(NC2=C(Cl)C(=O)c3ccccc3C2=O)cc1)c1ccc([N+](=O)[O-])cc1,-8%
CC(OC(=O)c1ccccc1Nc1ccc(SC(F)F)cc1)C(N)=O (stereo not given),-22%

Taken from above.
`Cc1ccccc1NC(=O)CC1SC(=NC2CCCCC2)NC1=O` (stereo not given) in HPGD block is entered as -4%
`O=C(CN1C(=O)COc2ccccc21)NCCN1CCC(Cc2ccccc2)CC1` in HPGD block is entered as -3%
`Cc1ccc(C)c(S(=O)(=O)NCc2ccncc2)c1` in HPGD block is entered as 0%
`CC(C)OCCCNC(=O)NC12CC3CC(CC(C3)C1)C2` in HPGD block is entered as -10%
`O=C(Oc1ccc(NC2=C(Cl)C(=O)c3ccccc3C2=O)cc1)c1ccc([N+](=O)[O-])cc1` in HPGD block is entered as -8%
`CC1(C)CC(=O)C2=C(C1)OC(N)=C(C#N)C2c1cc2c(cc1[N+](=O)[O-])OCO2` (stereo not given) in HPGD block is entered as 0%

The list continues.
SMILES,HPGD block
CC(=O)Nc1ccc(S(=O)(=O)NC(CC(=O)NC2CCCCC2C)C(C)C)cc1 (stereo not given),-6%
Cn1c(=O)[nH]c(=O)c2c1nc(Br)n2CCSc1nnnn1-c1ccccc1,-7%
CCN(CC)CCN1C(=O)c2oc3ccccc3c(=O)c2C1c1cccc(Br)c1 (stereo not given),-4%
COc1ccc(OC)c(-c2cc(C(=O)NCCN3CCOCC3)no2)c1,-19%
Cc1nn(C(C)(C)C)c(OC(=O)c2cccs2)c1S(=O)(=O)c1ccccc1,-22%
COc1ccc(OC)c(/C=C/C(=O)OCC(=O)Nc2ccc3c(c2)OCCO3)c1,?
COc1nc(N)nc(NC23CC4CC(CC(C4)C2)C3)n1,-6%
NS(=O)(=O)c1cc2c(cc1Cl)N[C@@H](C(Cl)Cl)NS2(=O)=O,4%
O=C(CCC(=O)c1ccccc1)NCCc1c[nH]c2ccccc12,-2%
Cc1cc(C)cc(-n2nnc(C(=O)NCc3ccccc3Cl)c2N)c1,-13%
COc1ccc(OCCNS(=O)(=O)Cc2ccccc2)cc1,-2%
CC(C)CCC(CCN1CCOCC1)c1ccc2c(c1)OCO2 (stereo not given),0%
Cc1ccc(C)c(C(=O)Nc2c(C(N)=O)oc3ccccc23)c1,-21%
O=C(c1c[nH]c2ccc(S(=O)(=O)N3CCC4(CC3)OCCO4)cc2c1=O)N1CCOCC1,?
Cc1ccc(-n2ccnc2SCC(=O)N(CC(C)C)C2CCS(=O)(=O)C2)c(C)c1 (stereo not given),-4%
Cn1c(=O)c(C(=S)NC(=O)C2CC2)c(N)n(Cc2ccccc2)c1=O,?

5 entries out of the list, arranged by SMILES length, descending:
SMILES,HPGD block
O=C(c1c[nH]c2ccc(S(=O)(=O)N3CCC4(CC3)OCCO4)cc2c1=O)N1CCOCC1,?
Cc1ccc(C)c(C(=O)Nc2c(C(N)=O)oc3ccccc23)c1,-21%
O=C(CCC(=O)c1ccccc1)NCCc1c[nH]c2ccccc12,-2%
CC(C)CCC(CCN1CCOCC1)c1ccc2c(c1)OCO2 (stereo not given),0%
COc1ccc(OCCNS(=O)(=O)Cc2ccccc2)cc1,-2%

Going on with the list:
SMILES,HPGD block
O=S(=O)(Nc1cccnc1)c1ccc(Cl)c(C(F)(F)F)c1,-13%
Cc1ccc(CNC(=O)CCCNS(=O)(=O)c2cccc3nonc23)cc1,-12%
O=S(=O)(c1ccccc1)N1CCC2(CCCN(Cc3ccncc3)C2)CC1,-7%
CC(C)CCNC1=CC(=O)CC(c2ccccc2)C1 (stereo not given),-16%
COC(=O)c1cn(CC(=O)NC2CCCCCC2)c2ccccc12,-1%
CC(C)(C)c1ccc(OCc2ccc(C(=O)N/N=C3\CC4CC=CC34)cc2)cc1 (stereo not given),-19%
Cc1ccc(-n2[nH]c(C)c(C=Nc3ccc4[nH]c(=O)[nH]c4c3)c2=O)cc1,-17%
CN(Cc1ccccc1)C(NC(=O)c1ccccc1)C(Cl)(Cl)Cl (stereo not given),-26%
O=C(Cn1c(COc2ccccc2)nc2ccccc21)Nc1cc(Cl)ccc1Cl,-9%
CC1=NN(c2ccccc2)C(=O)C1N=Nc1ccccc1 (stereo not given),-1%
CCCC1(C(=O)OC)NC(c2cc(OC)c(OC)c(OC)c2)C2C(=O)N(CC)C(=O)C21 (stereo not given),-1%
CCc1ccccc1NC(=O)C(C)n1nc([N+](=O)[O-])c(Br)c1C (stereo not given),-2%
COc1ccc(OC)c(-n2c(=S)[nH]c3cc(C(=O)N4CCC(C(N)=O)CC4)ccc3c2=O)c1,-5%
O=C1NCCCc2c1no[n+]2[O-],-5%
C/C(NCc1cccnc1)=C(\C#N)C(=O)NCc1ccccc1,-22%
Cc1cccc(C(=O)NC(=S)Nc2ccccc2C(F)(F)F)c1,-10%

Structures from the list above with a tert-butyl group:
SMILES,HPGD block
Cc1nn(C(C)(C)C)c(OC(=O)c2cccs2)c1S(=O)(=O)c1ccccc1,-22%
CC(C)(C)c1ccc(OCc2ccc(C(=O)N/N=C3\CC4CC=CC34)cc2)cc1 (stereo not given),-19%

Later entries
SMILES,HPGD block
Cc1nnc(NC(=O)c2cccc(S(=O)(=O)N3CC(c4ccccc4)CC3=O)c2)s1 (stereo not given),-5%
CC(=O)Nc1ccccc1C(=O)C(=O)Nc1ccc(C)c(F)c1,-15%
Cc1ccc(NC(=O)CCCN2C(=O)c3cccc4cccc(c34)C2=O)cc1,?
COC(=O)CSc1cnc2ccccc2n1,-5%
O=C1C2C3C=CC(C3)C2C(=O)N1CN(Cc1ccccc1)CN1C(=O)C2C3C=CC(C3)C2C1=O (stereo not given),-12%
Cc1nc([N+](=O)[O-])c(Sc2nc3ccccc3[nH]2)n1Cc1ccccc1,-4%
COc1ccc(-c2cc(C(=O)OCC(=O)N3CCCC3)c3ccccc3n2)cc1,?
Cc1ccc(-c2nc(NC(=O)c3nn(C)cc3[N+](=O)[O-])sc2C)cc1,-5%
CC(C)CC(=O)Nc1ccc(N2CCOCC2)cc1,-3%
CC1=CC=CN2CC(O)CN=C12 (stereo not given),?
c1ccc(-c2nc(-n3nc4ccccc4n3)nc3ccccc23)cc1,?
CCCCCCCC(=O)NNC(=O)CCC(=O)O,-2%
CC(C)CCNc1nc(N2CCCC2)c2c(c1C#N)CCN(C)C2,?
O=C(c1cc2ccccc2oc1=O)N(Cc1ccco1)Cc1cccs1,-4%
CC(C)Cc1nnc(NC(=O)c2ccc([N+](=O)[O-])cc2)s1,-7%
CC(C)OCC1CO1 (stereo not given),-5%
Cc1cccc(OC(C)C(=O)NCc2ccc(S(N)(=O)=O)cc2)c1 (stereo not given),-12%
CCOC(=O)Cn1c(=O)oc2cc(S(=O)(=O)Nc3cccc(C)c3)ccc21,-3%
CCOc1ccc(N=C(NN)c2ccc3ccccc3n2)cc1,?
C=C(C)Cn1c(Sc2nnc(C)s2)nc2c1c(=O)[nH]c(=O)n2C,-2%
COc1ccc(S(=O)(=O)O/N=C2\CCSc3ccc(C)cc32)cc1,-7%
CS(=O)(=O)N(CC(=O)N1CCCC1)c1ccc(Cl)c(Cl)c1,-6%
CC1(C)CC(=O)C2=C(C1)OC(N)=C(C#N)C2c1ccsc1 (stereo not given),-10%
O=C(NC1CCCCCC1)C1CCN(S(=O)(=O)N2CCC3(CC2)OCCO3)CC1,-7%

Additional results.
SMILES | HPGD block
CC1CCN(c2nc(-c3ccccc3O)nc3ccccc23)CC1 | -5%
CCOC(=O)c1c(C)[nH]c(C(=O)NCc2ccccc2OC)c1C | -8%
COc1cccc(/C=N/NC(=O)C(=O)NCc2cccnc2)c1O | -2%
CC(=O)c1ccc(N2CCCC2)c(F)c1 | -12%
O=S(=O)(c1ccc(NC(=S)NCCC(c2ccccc2)c2ccccc2)cc1)N1CCOCC1 | -16%
COc1ccccc1NC(=O)N1CCCC1C(=O)Nc1ccc2c(c1)OCO2 (stereo not given) | -9%
COc1ccccc1C1SCCN1C(=O)c1ccc([N+](=O)[O-])cc1 (stereo not given) | -2%
CCOC(=O)c1sc(=S)n(C)c1NC(=O)c1ccccc1 | 8.9µM*
COCCNCCCOc1ccc(C(C)(C)c2ccccc2)cc1 | -17%
COc1ccc(CCNC2CC(=O)N(C)C2=O)cc1OC (stereo not given) | -14%

Three compounds from above, sorted by their value in HPGD block, falling.
Molecule | HPGD block
CC(=O)c1ccc(N2CCCC2)c(F)c1 | -12%
O=S(=O)(c1ccc(NC(=S)NCCC(c2ccccc2)c2ccccc2)cc1)N1CCOCC1 | -16%
COCCNCCCOc1ccc(C(C)(C)c2ccccc2)cc1 | -17%

Next part.
SMILES | HPGD block
CN[C@H]1[C@H](O)[C@@H](O[C@@H]2[C@H](O)[C@@H](O[C@H]3OC(CN)=CC[C@H]3N)[C@@H](N)C[C@H]2N)OC[C@@]1(C)O | -1%
CCOC(=O)CNC=C(C(=O)OCC)C(=O)OCC | -14%
CC1CCc2nc(N)c(C#N)c(-c3ccncc3)c2C1 (stereo not given) | -27%
Cn1c(=O)c2cn3ncccc3c2n(C)c1=O | -16%
Cc1cnc(C(=O)OCC(=O)N2CCN(C(=O)c3ccco3)CC2)cn1 | 0%
O=C1C2C3C=CC(C4CC34)C2C(=O)N1c1nccs1 (stereo not given) | -6%
O=C(Cn1nnc(-c2ccccc2)n1)OCc1ccccc1 | -11%
CCC(C)S(=O)(=O)c1snnc1C (stereo not given) | -2%
Cc1sc2nc(CSc3nc4ccccc4c(=O)n3CCCN3CCOCC3)[nH]c(=O)c2c1C | -12%
COc1ccccc1NS(=O)(=O)c1cc(NC(=O)c2ccncc2)ccc1N1CCOCC1 | -24%
O=C1C2C3C=CC(C3)C2C(=O)N1Cc1ccc(CN2C(=O)C3C4C=CC(C4)C3C2=O)cc1 (stereo not given) | -2%
CCN(CC)S(=O)(=O)c1ccc(-c2ccc(S(=O)(=O)N(CC)CC)cc2)cc1 | -14%
CC1Cc2ccccc2N1c1nc(C2CC2)nc2c1nnn2Cc1ccccc1 (stereo not given) | ?
COc1ccc(NC(=O)c2cc3ccccc3o2)cc1 | -2%
COc1ccccc1/C=C(\NC(=O)c1ccc(OC)c(OC)c1)C(=O)Nc1ccc([N+](=O)[O-])cc1 | -22%
Cc1ccc(C(=O)CSc2nc(N)cc(=O)[nH]2)cc1 | -13%
O=C(Cc1ccccc1)Nc1ccc2oc(-c3cccnc3)nc2c1 | ?
CC1CCCCC1NC(=O)CN(C)S(=O)(=O)c1cccc2nsnc12 (stereo not given) | -7%
CCOP(=O)(c1ccccc1Cl)C1(O)CCCCC1 (stereo not given) | -10%
O=C(O)CCN1CC2([N+](=O)[O-])C=CC(=O)C([N+](=O)[O-])(C1)C2CC(=O)c1ccccc1 (stereo not given) | -25%
Cc1ccc(-c2cn3c(n2)CCCC3)cc1 | -18%
COCCN(C(=O)c1ccco1)c1nnc(-c2ccc(OC)cc2)s1 | -17%
O=C1c2ccccc2C(=O)N1c1nc2nccc(-c3ccccc3)n2n1 | -27%
Cc1cccc(NC(=O)NCC(F)(F)F)n1 | -6%
CC[C@H]1C(c2cccc(C)c2)=NN(c2ccccc2)[C@@H]1CO | ?
Clc1cccc(NC2=NCCC2)c1 | 0%
Brc1ccc2nc3c(n2c1)CCCC3 | -16%
NC(=O)NCc1ccccc1 | -7%
CCOC(=O)C1CCCN(C(=O)c2cc3nc(-c4ccc5c(c4)OCO5)cc(C(F)(F)F)n3n2)C1 (stereo not given) | ?
CCc1nc(SCC(=O)N2CCOCC2)c2c(=O)n(C)c(=O)n(C)c2n1 | -18%
O=C(NCCOC(=O)c1ccncc1)c1ccccc1 | -8%
Cn1c(=O)c(-c2cc(Br)ccc2N)nc2ccccc21 | -5%
Cc1c(NS(=O)(=O)c2ccc3c(c2)OCCO3)cccc1-c1nc2cccnc2s1 | -27%
O=C(NCCc1cn2ccccc2n1)c1ccccc1F | -6%
CC1=CCC2C(=O)N(c3ccc(C(=O)N4CCCCCC4)cc3)C(=O)C2C1 (stereo not given) | 1.4µM*
O[C@@H](CNC[C@H](O)c1ccccc1)c1ccccc1 | -12%
Cc1nn(-c2ccccc2)c(C)c1/C=N/NC(=O)c1cc(C2CC2)[nH]n1 | -2%
N#CC1=C(N)N(c2ccc(Br)cc2)C2=C(C(=O)CCC2)C1c1cccnc1 (stereo not given) | -7%
COCCOC(=O)C1=C(C)Nc2nc(C)nn2C1c1ccccc1 (stereo not given) | -6%
C=CC1C(N2CCOCC2)C(C)(C)S1(=O)=O (stereo not given) | 2%
CC(=O)[C@H]1[C@@H]2C(=O)N(c3cccc(Cl)c3)C(=O)[C@@H]2[C@H]2c3ccccc3C=CN21 | 35µM*
Cc1ccc(OCCNC(=O)c2cncc(Br)c2)cc1C | -10%

Only part of the results is shown (hit frequency here may not be typical).
